NPYLR7 ag: agonists of mosquito NPYLR7 receptor, primary screen, cell-based, Aedes aegypti, calcium fluorescence, mosquito biting behavior | Aedes aegypti neuropeptide Y-like receptor 7 (NPYLR7) | HEK293T NPYLR7/Galpha15, GCaMP6s calcium fluorescence | activation, % at 10 µM | 270,000 compounds, 0.15% hits; in the data active means activation above about 40%;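 further: 0% = vehicle and 100% = reference agonist at the receptor; some compounds past the cut are filed as inactive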
NPYLR7 ag max-min: recorded beside NPYLR7 ag, whose call it bears; activation, %; measured here: Max-Min RFU normalised activation; some inactives read as strong as hits;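 span of the calcium signal over five minutes; 0% = vehicle and 100% = native peptide agonist; compound fluorescence can raise it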
* = called active by the depositor; & = joins results of further samples. An excerpt. The share of hits here may be higher or lower than overall.

SMILES	NPYLR7 ag	NPYLR7 ag max-min
Cc1noc(-c2cccc(F)c2)c1C(=O)NCc1ccc(F)cc1F	3	-1
CN1CCN(n2ccc3c(cnc4ncnn43)c2=O)CC1	-5	-3
COc1ccc2cc(-c3[nH]ncc3CNC3(c4ccccc4)CC3)ccc2c1	5	-7
CCOc1cc(C)c(S(=O)(=O)n2ccc(C)n2)cc1C	-1	10
O=C(NCC1(N2CCOCC2)CCCCC1)C1CCC(=O)N(CCc2cccc(F)c2)C1 (stereo not given)	5	5
CCC(C)N(Cc1csc(COc2cccc(C)c2C)n1)C(=O)NC(C)(C)C (stereo not given)	15	21
Cc1cc(I)ccc1NC(=O)c1cccs1	-8	-15
Cn1c(=O)c2c(ncn2CCCOc2ccc(Cl)cc2)n(C)c1=O	2	11
COc1ccc(S(=O)(=O)Nc2cc(-c3ccco3)nn2C2CCS(=O)(=O)C2)cc1 (stereo not given)	1	0
CC#CCN(Cc1ccco1)C(=O)CC(=O)Nc1ccc(C)cc1C	15	0
Cc1cccc(C(=O)N[C@@H]2C[C@@H]3C[C@H]([C@H]2C)C3(C)C)c1	34	17
Cc1ccc2ncc(-c3ccc4c(N)c(C)ccc4n3)cc2c1	-3	-4
COc1ccc(CCn2c(-c3ccc(C)cc3C)nc3ccc(Br)cc3c2=O)cc1	4	0
CCN(CC)C(=O)Oc1ccc2c(ccn2Cc2cc(F)c(F)c(F)c2F)c1-c1ccc(OC)c(OC)c1	4	-4
Cc1ccc(CN(CCc2c[nH]c3ccccc23)C(=O)CN(C(=O)c2ccccc2Br)C(C)C)cc1	-1	3
CCOc1ccc(-c2c(C)n([O-])c3c([n+]2=O)CCCC3)cc1	-4	-6
CCCCN(C)c1c(C)nc2c(OCCOC)cccn12	-3	-7
O=S(=O)(c1ccccc1)c1cnc2ccc(F)cc2c1N1CCOCC1	2	2
COCc1cc(C)nc(OCC(=O)N/N=C\c2ccc(F)cc2)c1C#N	-10	-6
CCCNC(=O)N(CC(=O)N1CCCN(c2ccc(-c3ccccc3)nn2)CC1)Cc1ccco1	5	3
CN(C)C(=O)c1ccc2c(c1)N(C)C(CC(=O)NCCc1ncnn1C)CO2 (stereo not given)	4	1
O=C(Nc1cccc(Cl)c1)N1CCCC(OCc2ccc(Br)cc2)C1 (stereo not given)	8	12
CC1(Cc2ccc(Cl)c(Cl)c2)C(=O)Nc2ccc(S(=O)(=O)NC3CCCCC3)cc21 (stereo not given)	3	1
COc1cc(C#N)cc(Cl)c1OCc1cc(=O)n2ccc(C)cc2n1	7	4
Cc1cccc(C)c1N1C(=O)CC(N(Cc2ccc(F)cc2)C2CC2)C1=O (stereo not given)	5	1
C=CCN(CC(=O)N1CCc2sccc2C1c1ccc(F)cc1)C(=O)c1ccc(CCCCCC)cc1 (stereo not given)	13	14
Cc1noc(C)c1CNC(=O)N1CCN(Cc2ccsc2)CC1	3	0
O=C(NCc1ccc(Cl)cc1)c1c(O)nc2ccccn2c1=O	-1	7
CCC(C)(C)C1CCC(NC(=O)c2cccnc2-n2cncn2)CC1 (stereo not given)	1	1
CCCCc1ccc(S(=O)(=O)N2CCN(c3nc4ccccc4nc3C)CC2)cc1	13	7
Cc1cccc(CCNC(=O)c2cn(Cc3ccc(Cl)cc3)nn2)n1	17	5
COCCN(Cc1cccc(F)c1)Cc1cccn1Cc1ccccc1	-3	5
C[C@H]1C(NC(=O)C(C)(C)CC(=O)c2ccccc2)C[C@@H]2C[C@H]1C2(C)C (stereo not given in full)	21	8
O=C(CSc1nc(-c2ccc(Cl)cc2)cc(=O)[nH]1)Nc1oncc1-c1ccccc1	-2	-4
Nc1ncnc2nc(SCc3nc4ccccc4c(=O)n3-c3cccc(C(F)(F)F)c3)[nH]c12	3	2
CCOc1ccc(-n2c(SCC(=O)NNC(=O)c3cccs3)nnc2-c2ccncc2)cc1	28	30
O=C(N=Nc1c(O)[nH]c2ccccc12)c1cc(-c2ccccc2)nc2ccccc12	-2	0
Cc1noc(C)c1CNC(C)C1CCCCC1 (stereo not given)	-7	-13
CC(=O)NCc1ccc(-c2csc(NC(=O)c3ccoc3)n2)s1	2	1
CCOC(=O)c1cc(C)nn1C1CCN(C(C)=O)CC1	-1	-1
Cc1nc2c(c(N(C)C)n1)CCN(C(=O)CCc1n[nH]c(C)c1C)C2	-4	-4
CNC(=O)c1ccc(-c2cc(NCc3ccccn3)nc3[nH]ccc23)o1	20	14
OCc1nnn(-c2ccc(Br)cc2)c1CO	-1	-6
CC(=O)c1cccc(N=c2c([N+](=O)[O-])nn(-c3cccc(Cl)c3)n2O)c1	1	-2
CCc1cccc2c(C(CC(=O)N3CCN(c4ccccc4F)CC3)c3ccc(OC)cc3)c[nH]c12 (stereo not given)	3	16
C=CCN(Cc1ccccc1C)C(=O)Cn1cnc2ccsc2c1=O	-2	1
Cc1ccc2nc(CN(C)C(=O)C(C)n3ccnc3C(C)C)[nH]c2c1 (stereo not given)	-1	-3
CCCc1nc(C)sc1C(=O)N1CCC(c2ccccc2)CC1	-9	-16
Fc1ccccc1C1CCN1CCCOc1ccccc1 (stereo not given)	-1	-2
C=CCc1cc(CN2[C@@H]3CC[C@H]2CN(C)C(=O)C3)ccc1OC	2	-1
Cc1nc(NCCNC(=O)Nc2ccc(C)c(F)c2)cc(-n2cccn2)n1	-10	-10
CCN(C(=O)c1cccc2c1OCC2)C1CCS(=O)(=O)C1 (stereo not given)	11	6
CN1C(=O)C2C(c3ccc(N(C)C)cc3)NN(Cc3ccccc3)C2C1=O (stereo not given)	7	7
CC(C)(C)NC(=O)COc1ccc2oc3c(c2c1)CCCC3	3	-1
Cc1ccccc1-c1nn(-c2ccc(F)cc2F)cc1CNCc1ccc2c(c1)OCO2	-3	-6
Cc1ccsc1C(=O)OCC(=O)Nc1c(Cl)cc(Cl)cc1Cl	-3	-7
O=C(C1CC(=O)N(c2cccc(F)c2)C1)N1CCN(c2ncnc3c2nnn3-c2ccccc2)CC1 (stereo not given)	-7	-14
O=C1N=C(N2CCOCC2)SC1=Cc1cccc(O)c1	15	11
O=C(c1csc(CSc2nnc(Cc3ccccc3)n2-c2cccc(Cl)c2)n1)N1CCCC1	-2	6
CC(C)N1CCN(C(=O)CCNC2CCC3(CCNCC3)CC2)CC1	0	-1

Next compounds:
SMILES	NPYLR7 ag	NPYLR7 ag max-min
O=C(CC12CC3CC(CC(C3)C1)C2)NCC(=O)Nc1cccc(C(=O)NC2CC2)c1	-4	-3
Cc1cccc(C)c1N1C(=O)CC(Nc2ccc3[nH]c(=O)[nH]c3c2)C1=O (stereo not given)	3	2
O=C(Cn1cccn1)Nc1cccc(C(F)(F)F)c1	-1	-1
COc1cccc(COc2coc(CN3CCCN(S(=O)(=O)c4ccc(OC)c(OC)c4)CC3)cc2=O)c1	29	13
COCCN(Cc1c(-c2ccccc2)noc1N1CCOCC1)C(=O)C1CCCC1	-3	0
COc1ccc(-c2nc3cc(C)ccn3c2NC(C)(C)CC(C)(C)C)cc1	-4	2
CCCNC(=O)c1ccc(Cl)c(S(=O)(=O)N2CCCCC2)c1	0	7
ON=C1CC2C3C/C(=N/O)C4C3CC2C14 (stereo not given)	-1	0
CCOC(=O)C1(Cc2ccccc2)CCCN(Cc2ccc(C#CC(C)(C)O)cc2)C1 (stereo not given)	17	12
Clc1ccc(CNc2nccn3ccnc23)cc1	1	-1
O=C(NCCc1ccccc1)C(C1CCCC1)N1CCN(C(=O)C2CC2)CC1 (stereo not given)	-3	2
CC(C)c1ccc(NC(=O)c2cn(C)c3c(=O)n(-c4ccccc4)c(=O)[nH]c23)cc1	5	2
Cn1ncc2c1ncn1nc(COc3ccc(Cl)cc3)nc21	9	3
C=CCN1C[C@@H]2C[C@@H](C(=O)NC)N(C(=O)OCc3ccccc3)c3cccc(c32)C1=O	-3	7
CCOc1ccc(OCC(=O)OCc2cc(-c3ccc(F)cc3F)on2)cc1	0	-2
CC(C)CN(Cc1nccn1Cc1ccc(Cl)cc1Cl)C(=O)c1ccccc1F	17	13
COc1cccc(CC(=O)N2C[C@H](Oc3ccccn3)[C@H]3C[C@@H]2CC[C@H]3N2CCOCC2)c1	21	29
CCc1c(C)nc(-c2cccc(C(F)(F)F)c2)nc1N1CCN(C(=O)Nc2ccc(SC)cc2)CC1	-4	-1
CCn1c(SCC(=O)N/N=C(\C)c2ccc(OC)c(OC)c2)nc2ccccc21	2	4
CCOC(=O)C1=C(C)N=c2s/c(=C3\C(=O)N(C)c4ccccc43)c(=O)n2C1c1cccs1 (stereo not given)	-3	-8
CN(CCC(=O)Nc1ccc(Br)cc1F)CC(=O)Nc1cccc(F)c1	8	5
CCOC(=O)c1cnc(SCC(=O)OCC(=O)Nc2c(Cl)cc(Cl)cc2Cl)nc1N	-4	-7
O=C1COCc2cc(-c3cccc(CO)c3)ccc2N1CCN1CCOCC1	8	3
CCOC(=O)c1c(C)n(-c2ccccc2)c2ccc(OC(=O)c3cc([N+](=O)[O-])cc([N+](=O)[O-])c3)cc12	-7	1
CCc1[nH]c(C(=O)N(C)Cc2cccs2)c(C)c1C(=O)OC	-1	-7
O=C(Nc1ccccc1)N1C[C@H](Oc2ccccn2)[C@H]2C[C@@H]1CC[C@H]2O	23	30
O=C(NCc1ccc(CN2CCOCC2)cc1)N(Cc1ccccc1)Cc1ccccc1	3	5
CC(C)(C)c1cc2nc(-c3ccccc3F)cc(C(=O)N3CCc4ccccc4C3)n2n1	6&19	8&33
CC1C(=O)N(c2cccc(C(F)(F)F)c2)CCN1S(=O)(=O)c1ccc(F)cc1 (stereo not given)	-7	-2
Cc1nn(-c2ccccc2)c2c1C(c1ccc3c(c1)OCO3)C(C#N)C(=N)O2 (stereo not given)	-6	-10
C1=CC[C@H]2CN(Cc3nnnn3Cc3ccccc3)C[C@H]2C1	-2	-1
Cc1sc2ncn(CC(=O)N(C(C)C)C(C)C)c(=O)c2c1C	2	8
CCC(C)NC(=O)CSc1nc2ccccc2c(=O)n1-c1ccc(C)cn1 (stereo not given)	-3	-6
COC(=O)Cn1c(=NC(=O)c2ccc3ncsc3c2)sc2ccccc21	0	-2
COc1ccc(-c2csc(NC(=O)CCl)n2)c(O)c1	6	4
COc1ccc(-c2nc3ccc(Br)cn3c2NC(C)(C)C)cc1	7	13
OCCNC/C=C/c1c(F)c(F)c(F)c(F)c1F	2	-1
CCC(C(=O)N(CC(=O)N1c2ccccc2-n2cccc2C1c1cc(OC)ccc1OC)C(C)C)c1ccccc1 (stereo not given)	5	8
Oc1ccccc1CN(Cc1nnnn1C1CC1)C1CCCCC1	2	1
CCOC(=O)c1c(NC=C2CCCCC2=O)sc2c1CCCC2	-13	-19
CC1(C)O[C@@H]2C[C@@](OCc3ccc(C#N)cc3)(C(=O)NCCN3CCOCC3)CC(OCC3CC3)[C@@H]2O1 (stereo not given in full)	4	16
CCC(=O)Nc1cccc(NC(=O)c2ccccc2C)c1C	3	3
O=[N+]([O-])c1ccc(-c2nc(C=C3C=Nc4ccccc43)c(O)o2)cc1	-15	-18
CN(Cc1ccccc1)C(=O)CCNC(=O)CNC(=O)CC(C)(C)C	10	13
CC(=O)N(Cc1nccn1Cc1ccc(C(F)(F)F)cc1)C(C)C	-2	-2
CCN(CC)c1ncccc1CNC(=O)C1CCc2ccccc21 (stereo not given)	1	-1
CCOC(=O)c1c(C)[nH]c(C(=O)C(C)OC(=O)CCn2c(C)csc2=O)c1C (stereo not given)	10	10
Fc1ccc2onc(C3CCN(Cc4cc5n(n4)CCNC5)CC3)c2c1	-6	-17
Cc1nn(Cc2ccccc2Cl)c2sc(C(=O)NCCCN3CCOCC3)cc12	14	2
CC1CCN(C(=O)C2CCCN(C(=O)CCNc3ncccn3)C2)CC1 (stereo not given)	0	5
c1ccc(C(CNc2nnnn2-c2ccccc2)N2CCCC2)cc1 (stereo not given)	1	2
CCNC(=O)N(Cc1ccc(F)cc1)Cc1ccccc1OS(C)(=O)=O	-2	6
Cc1nnc(SCc2cccnc2)c2c1cnn2-c1ccc(F)cc1	-12	-18
OCc1ccc(CN2CCCCC2CN2CCOCC2)o1 (stereo not given)	2	3
CCc1cccc(Nc2c(C(=O)N3CCC(C)CC3)cnc3nc(C)ccc23)c1	-5	-6
CCOC(=O)C1=C(CN2CCCC2c2cccn2C)NC(=O)NC1 (stereo not given)	0	2
C(=C\c1ccco1)/CNCC1Cc2ccccc2O1 (stereo not given)	0	-3

In the list so far, 14 have an aryl methoxy group:
SMILES	NPYLR7 ag	NPYLR7 ag max-min
COc1ccc2cc(-c3[nH]ncc3CNC3(c4ccccc4)CC3)ccc2c1	5	-7
COc1ccc(S(=O)(=O)Nc2cc(-c3ccco3)nn2C2CCS(=O)(=O)C2)cc1 (stereo not given)	1	0
COc1ccc(CCn2c(-c3ccc(C)cc3C)nc3ccc(Br)cc3c2=O)cc1	4	0
CCN(CC)C(=O)Oc1ccc2c(ccn2Cc2cc(F)c(F)c(F)c2F)c1-c1ccc(OC)c(OC)c1	4	-4
COc1cc(C#N)cc(Cl)c1OCc1cc(=O)n2ccc(C)cc2n1	7	4
CCc1cccc2c(C(CC(=O)N3CCN(c4ccccc4F)CC3)c3ccc(OC)cc3)c[nH]c12 (stereo not given)	3	16
C=CCc1cc(CN2[C@@H]3CC[C@H]2CN(C)C(=O)C3)ccc1OC	2	-1
COc1cccc(COc2coc(CN3CCCN(S(=O)(=O)c4ccc(OC)c(OC)c4)CC3)cc2=O)c1	29	13
COc1ccc(-c2nc3cc(C)ccn3c2NC(C)(C)CC(C)(C)C)cc1	-4	2
COc1cccc(CC(=O)N2C[C@H](Oc3ccccn3)[C@H]3C[C@@H]2CC[C@H]3N2CCOCC2)c1	21	29
CCn1c(SCC(=O)N/N=C(\C)c2ccc(OC)c(OC)c2)nc2ccccc21	2	4
COc1ccc(-c2csc(NC(=O)CCl)n2)c(O)c1	6	4
COc1ccc(-c2nc3ccc(Br)cn3c2NC(C)(C)C)cc1	7	13
CCC(C(=O)N(CC(=O)N1c2ccccc2-n2cccc2C1c1cc(OC)ccc1OC)C(C)C)c1ccccc1 (stereo not given)	5	8
